# Source: PubChem BioAssay (several laboratories)
# ugtP null kill: kills S. aureus RN4220 lacking UgtP. S. aureus RN4220 ugtP deletion, OD600 growth, 16 h; some inactives read as strong as hits. growth inhibition, % (no concentration beside the values). 330,000 tested, 0.54% active. AID 1259309;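 active = z-score under -3 and OD600 up to 0.15 on both plates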;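 also: plate controls were untreated wells for no effect and antibiotic for full effect; wells of about 80 µL received 100 nL stock; the first replicate is given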
# PrP 5UTR inh: suppresses PrP 5' UTR mRNA reporter expression; cell-based PrP 5' UTR mRNA reporter, plate reader; inhibition, % (test concentration not listed); 340,000 tested, 0.35% active; AID 488862;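 active = every replicate at 50% or more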;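 also: 0 = median of the neutral control wells; tested in H4 reporter cells; numbers are from one replicate; inactives centre near -14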
# Autofluor counter: counter-screen for toxin protease inhibitors: compound fluorescence; compound autofluorescence counterscreen, microsphere flow cytometry; hits give high values; fluorescence intensity (concentration not given with the values); 360,000 tested, 3.1% active; AID 624483;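 active = at least 3 SD above the mean of all compounds, about 16000 in these data; inconclusive = too few beads counted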;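 also: 100 nL of 1 mM stock went into each well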
# Mtb hypoxia inh: inhibitors of hypoxia-regulated fluorescent reporter in Mycobacterium tuberculosis; M. tuberculosis hypoxia-regulated fluorescent reporter, fluorescence; fluorescence inhibition, % (concentration not given with the values); 300,000 tested, 0.1% active;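 active = 35 to 45% if threefold the growth effect, above 45% if 1.5-fold the growth effect; inactive = the rest, general growth blockers included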;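 also: wells of about 50 µL received 100 nL stock; 0% = vehicle wells and 100% = reference inhibitor wells; whole bacteria with a GFP reporter of the hypoxia response; strong numbers were not always called active; many hits fall short of the cut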
# BJeLR lethal: BJeLR cell viability loss; BJeLR (HRASV12) viability, CellTiter-Glo ATP luminescence, 48 h; reference of the scale not given here; inhibition, % (no concentration beside the values); 300,000 tested, 0.17% active;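 active = replicate mean above 50%; inconclusive = above 50% but judged a plate artefact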;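 also: 50 nL library stock added to about 25 µL; numbers are from one replicate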
# Sa RN4220 lethal: kills Staphylococcus aureus RN4220; S. aureus RN4220 growth, OD600, 16 h; inhibition, % (test concentration not listed); 330,000 tested, 0.33% active;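 active = z-score of -3 or lower and OD600 up to 0.18 on both plates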;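 also: plate controls were untreated cells for no effect and reference antibiotic for full effect; stock transfer was 100 nL into about 80 µL; one replicate is shown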
# Mtb hypoxia inh growth: further read-out of Mtb hypoxia inh, marked with its call; growth inhibition, %; measured here: M. tuberculosis growth (absorbance);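 0% = vehicle and 100% = reference antibiotic; read after six days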
# Active calls of the source: *; ? = inconclusive; / = not tested or not shown.
SMILES,ugtP null kill,PrP 5UTR inh,Autofluor counter,Mtb hypoxia inh,Mtb hypoxia inh growth,BJeLR lethal,Sa RN4220 lethal
COc1cc2c(cc1OC)[C@@H]1C(=O)c3ccc4c(c3O[C@@H]1CO2)C[C@H](C(C)C)O4,/,-25.0,3554,/,/,8.8,/
COc1ccc(C(=O)NN=Cc2ccc(N(C)c3ccccc3)cc2)cc1,2.9,/,/,7.2,-0.3,/,-1.8
Cc1nnc(SCC(=O)N2CCCCC2)n1CC1CCCO1 (stereo unspecified),1.6,-11.5,4666,/,/,1.0,-1.1
CN(C)CC(C)(C)CNC(=O)C1CCN(Cc2ccccc2O)CC1,3.0,-16.2,4066,/,/,5.4,1.1
Cc1c(NC(=O)/C=C/c2cn(-c3ccccc3)nc2-c2ccccc2)c(=O)n(-c2ccccc2)n1C,/,0.6,2391,/,/,-4.7,/
CC(C)C(=O)NNc1ccc(C(F)(F)F)cn1,/,-18.4,3480,/,/,8.1,/
CCOC(=O)C1=C(c2ccc(OC)cc2)OC(N)=C(C#N)C1c1cccnc1 (stereo unspecified),9.3,/,5508,6.2,14.9,-13.1,2.2
CC1CN(C(=O)CSc2nnc(CNC(=O)c3ccc(S(=O)(=O)N(C)C)cc3)o2)CC(C)O1 (stereo unspecified),7.4,-16.7,?,-2.3,-4.1,-0.8,0.9
Cc1cc(Cl)c2oc(C(=O)N(C)Cc3cc(C)[nH]n3)c(C)c2c1,-3.0,-7.3,5497,-1.9,11.7,-7.2,7.7
O=C(COC(=O)c1ccccn1)c1ccc([N+](=O)[O-])cc1,-3.4,-16.7,7794,13.2,5.8,0.8,4.6
Cc1ccc(/C=C/C(=O)N2CCN(Cc3ccccc3)CC2)o1,-2.7,-29.2,2327,58.9*,38.1*,-25.5,5.9
O=C(c1cccc(Cl)c1)N1CCN(C(=O)c2ccco2)CC1,-1.6,-0.2,5450,/,/,-3.1,1.1
O=C(CNc1cccc([N+](=O)[O-])c1)N/N=C/c1ccc([N+](=O)[O-])o1,/,-18.7,4742,/,/,2.5,/
O/N=C(\c1ccccc1)C(O)c1ccccc1 (stereo unspecified),/,-15.9,3924,/,/,-2.2,/
CCOCc1[nH]c(=S)[nH]c(=O)c1Cc1ccc(OCC(C)C)cc1,-2.6,-13.5,4689,-5.7,-5.9,-3.3,3.8
NC(=O)CCC(NS(=O)(=O)c1ccc(Cl)cc1)C(=O)NCc1ccccc1 (stereo unspecified),6.4,/,/,14.8,0.6,3.5,6.3
O=C(Cn1ncn2c(cc3ccccc32)c1=O)NCCCc1ccccc1,7.4,0.7,5929,-6.1,0.1,5.4,5.4
Cc1ccc(Cn2c(C)nc3c(c2=O)c2nc4ccccc4nc2n3Cc2ccco2)cc1,1.1,-16.0,4754,-1.2,10.5,-4.1,-0.1
O=C(Nc1ccccc1[N+](=O)[O-])C1(c2ccccc2)CCOCC1,-61.4,-31.5,4500,4.5,-10.9,-16.7,8.6
CC1CC2C3CCC4=CC(=O)C=C[C@]4(C)[C@@]3(F)C(O)C[C@]2(C)C1C(=O)CO (stereo partly specified),-2.5,/,/,-3.3,0.3,/,3.0
CC(=N/N=C1\NC(=O)C(C)S1)c1ccco1 (stereo unspecified),9.4,/,/,15.6,3.9,/,8.7
CCCn1c(N)c(C(=O)CN2CCN(S(=O)(=O)c3cccs3)CC2)c(=O)[nH]c1=O,-8.9,-11.8,9527,-2.6,-2.3,-7.5,-3.9
CCC(C)=NN1C(=O)c2ccccc2NC1(C)CC (stereo unspecified),-1.7,/,/,6.0,9.2,/,6.9
O=[N+]([O-])c1ccc2c3n([n+]([O-])c2c1)CCN=C3c1ccc(Cl)cc1,16.4,-28.3,4518,16.9,20.2,0.4,26.6
CCOc1ccc(C(=O)NCc2cccnc2)cc1,-1.3,-7.2,4258,5.4,2.2,2.0,1.5

# The last 2 entries of the part above come first, to join the parts.
SMILES,ugtP null kill,PrP 5UTR inh,Autofluor counter,Mtb hypoxia inh,Mtb hypoxia inh growth,BJeLR lethal,Sa RN4220 lethal
O=[N+]([O-])c1ccc2c3n([n+]([O-])c2c1)CCN=C3c1ccc(Cl)cc1,16.4,-28.3,4518,16.9,20.2,0.4,26.6
CCOc1ccc(C(=O)NCc2cccnc2)cc1,-1.3,-7.2,4258,5.4,2.2,2.0,1.5
CCOC(=O)C1CN(S(=O)(=O)c2ccc(C)cc2)C1,2.7,-9.0,3928,2.0,6.0,-1.4,2.8
O=C(NC(=S)Nc1cccnc1)c1cc2ccccc2o1,4.7,-32.5,2564,0.8,3.5,-5.5,0.8
CC1CCCC2(C1)NC(=S)c1c(sc3c1CCCC3)N2 (stereo unspecified),-5.8,-12.1,4414,-14.0,6.0,-12.5,-4.2
Cn1c(SCC(=O)N2CCCC2=O)nc2ccccc2c1=O,1.0,-20.8,4066,4.1,8.9,/,3.5
CCOC(=O)C(=O)NN=Cc1ccco1,2.7,/,/,-17.4,-6.9,/,3.5
COCCN1C=C2C(=O)C(C)(OC(=O)CCc3ccccc3)C(=O)C=C2C=C1c1ccc(C#N)cc1 (stereo unspecified),-0.5,-7.1,3701,9.6,0.8,-6.4,4.4
COCCSc1ccccc1C(=O)Nc1ccc(Cl)cc1,5.1,-42.3,4090,9.1,2.9,1.5,2.0
CC1=N/C(=C\c2ccc([N+](=O)[O-])cc2)C(=O)N1c1ccc(F)cc1F,-3.3,8.7,2828,-5.4,2.3,-8.0,-0.6
CC(O)C(NS(=O)(=O)c1ccc2ccccc2c1)C(=O)OCC(=O)Nc1ccccc1OC(F)F (stereo unspecified),0.2,-12.0,/,2.8,-5.5,/,4.6
CCOc1cc(C)nc(NCCc2ccc(OC)c(OC)c2)n1,0.4,-15.5,10760,-1.6,-3.4,-3.1,8.7
COc1ccc(/C(O)=C2/C(=O)C(=O)N(CCN3CCOCC3)C2c2ccc(C)cc2)cc1 (stereo unspecified),-3.1,-9.7,11194,-3.2,0.8,2.9,-1.9
Cc1ccc(C)c(S(=O)(=O)NCc2ccc(C(=O)N3CC(C)OC(C)C3)cc2)c1 (stereo unspecified),10.2,-43.2,5089,/,/,1.1,3.3
Cc1[nH]nc(SCC(=O)NCc2ccccc2)c1[N+](=O)[O-],/,-14.1,7815,/,/,14.6,/
O=C(CSc1nc(O)cc(=O)n1-c1ccccc1)NC1CCCCC1,3.8,0.7,2541,/,/,-5.9,-1.9
CCOC(=O)N1CCN(Cc2nc3cc(NC(=O)CC(C)C)ccc3n2C)CC1,8.7,-24.9,3484,-8.0,2.3,-10.8,2.8
C[C@H](NC(=O)OCc1ccccc1)C(=O)NNC(=O)[C@H](Cc1ccccc1)NC(=O)OC(C)(C)C,/,-16.4,3337,/,/,-7.1,/
Cc1ccc(-n2c(CCC(=O)O)ccc2-c2cccs2)cc1,-11.0,6.5,23564*,-2.3,11.6,-8.2,2.0
Cc1ccc(S(=O)(=O)N2CCCC2)cc1C(=O)NCc1ccccc1CN1CCCC1,3.3,-6.9,4942,1.9,0.7,/,4.0
COCCn1nnnc1C(c1cc2cc(C)cc(C)c2[nH]c1=O)N1CCN(c2ccccc2F)CC1 (stereo unspecified),6.3,-18.2,5798,4.2,5.1,-2.4,4.6
Nn1c(-c2ccccc2)cc(-c2ccccc2)cc1=O,1.1,5.1,2858,15.3,13.3,-6.1,8.3
COc1ccc(CCNS(=O)(=O)c2ccc3[nH]c(=O)[nH]c3c2)cc1,3.0,-6.2,4005,4.7,7.0,/,2.0
CCOC(=O)c1cc(-c2ccc(C)o2)n[nH]1,-7.3,-14.7,5645,5.5,6.0,13.9,6.8
CC(=O)NNc1cc(N2CCOCC2)nc(N2CCOCC2)n1,-3.2,-20.5,6265,3.0,2.4,3.6,-9.4
COc1ccc(C(=O)NCC(=O)OCCOc2ccc(Cl)cc2)cc1OC,11.1,-13.3,2875,8.8,4.7,/,4.5
O=S(=O)(NCc1ccc(Cl)cc1Cl)c1ccc(N2CCOCC2)nc1,4.6,-24.2,6880,13.5,3.5,-5.4,5.6
# Next section:
SMILES,ugtP null kill,PrP 5UTR inh,Autofluor counter,Mtb hypoxia inh,Mtb hypoxia inh growth,BJeLR lethal,Sa RN4220 lethal
NC(=O)c1c(NC(=O)Cn2nc(C(=O)O)c3ccccc3c2=O)sc2c1CCCC2,12.0,-24.0,5082,-2.2,-9.8,-7.7,4.2
CN(C(=O)c1cccc(NC(=O)Cc2ccc(NC(=O)C3CCN(C(=O)C4CC4)CC3)cc2)c1)C1CC1,7.0,-17.6,2788,2.6,7.5,/,5.1
O=C(Nc1ccc(Cl)cn1)c1cccc2ccccc12,6.3,-31.2,3298,4.5,5.0,30.9,4.3
Cn1c(=O)c2c(nc(NCc3ccco3)n2CC(O)COc2ccccc2)n(C)c1=O (stereo unspecified),4.6,3.9,2223,/,/,-2.4,4.9
Cc1c(Cl)c([N+](=O)[O-])nn1CC(=O)N1CCN(Cc2ccccc2)CC1,-0.1,-29.1,4603,3.2,-2.0,-4.7,0.6
c1ccc(C2N3CCCN23)cc1 (stereo unspecified),7.1,-22.8,3355,/,/,-7.9,1.7
Cc1cc(C=C(C#N)C#N)c(C)n1-c1ccccc1,3.6,-21.7,4318,/,/,2.3,3.7
FC(F)(F)c1nnc(-c2ccccc2)nc1Oc1ccc(Cl)cc1Cl,15.6,-17.2,2396,/,/,-7.2,3.0
COc1ccc(CCNCC2CCCO2)cc1 (stereo unspecified),5.7,-8.8,3378,5.2,-5.5,4.0,3.5
CN(C(=O)c1cccc(NC(=O)Cc2ccc(NC(=O)C3CCCN(S(=O)(=O)c4cccc([N+](=O)[O-])c4)C3)cc2)c1)C1CCCC1 (stereo unspecified),-5.1,0.4,3405,-8.2,7.5,/,5.1
O=C(NCc1ccccn1)c1nc(Cn2ccc([N+](=O)[O-])n2)no1,4.1,-14.3,3723,-6.1,4.1,2.7,1.2
CC(=O)c1cccc(N(C(=O)c2csnn2)C(C(=O)NC2CCCC2)c2ccccc2)c1 (stereo unspecified),6.7,-3.1,2802,0.0,2.1,-4.0,3.5
COc1cccc(-c2cccc(NC(=O)C3CCN(Cc4cccc(C)n4)CC3)c2)c1,8.5,-33.9,5649,14.4,0.5,-7.3,3.5
CN1CCN(C(=O)c2cc3c(=O)n4ccccc4nc3s2)CC1,1.1,-29.6,3518,5.7,4.6,-6.3,3.0
CN1CCN(C(=O)CN(C2CCCCC2)S(=O)(=O)c2ccccc2)CC1,-0.4,-6.6,5777,-9.3,-3.8,0.6,1.0
Cc1ccc(CNC(=O)COC(=O)c2ccc(S(=O)(=O)N3CCOCC3)cc2)cc1,-2.5,1.0,2861,-1.5,-4.0,/,-0.6
COc1ccc(N2CCN(C(=O)c3cc(=O)c4cc(Cl)ccc4o3)CC2)cc1,10.1,-13.3,3939,-1.4,-0.1,-2.1,4.0
Cc1cccc(Oc2ccccc2NS(=O)(=O)c2ccc(CCC(=O)O)cc2)c1,11.5,-6.5,3772,9.6,8.6,/,19.0
COc1ccc(/C=C2/C(=O)N(Cc3ccco3)C(=O)N(C(C)C)C2=O)cc1,40.4,-17.8,2786,-13.6,3.7,/,40.4
CCc1c(C#N)c(SCCC(=O)Nc2ccc(C)cc2)nc2c1C(=O)CC(C)(C)C2,-4.1,-2.5,2538,5.5,-0.6,-18.0,-4.5
Cc1c(Cl)cccc1NC(=O)CSc1ncnc2c1cnn2CCO,-0.5,1.4,4400,7.7,3.4,/,-4.6
COc1ccc(C(CC(=O)N2CCCCC2)NC(=O)C(F)(F)F)cc1 (stereo unspecified),6.6,-31.9,4024,1.4,6.3,2.9,0.3
CCc1cc(C(=O)OC)c(NC(=O)CN2CCN(C(=O)C3CCCO3)CC2)s1 (stereo unspecified),4.5,-13.1,4503,13.0,19.4,-10.4,1.0
O=C(NN=Cc1cc(Br)cc(Cl)c1O)c1ccc2c(c1)OCO2,15.0,/,/,4.6,10.4,/,1.6

# One compound at a time, from the list above.
# CN(C(=O)c1cccc(NC(=O)Cc2ccc(NC(=O)C3CCN(C(=O)C4CC4)CC3)cc2)c1)C1CC1 reads ugtP null kill = 7.0; PrP 5UTR inh = -17.6; Autofluor counter = 2788; Mtb hypoxia inh = 2.6; Mtb hypoxia inh growth = 7.5; BJeLR lethal = /; Sa RN4220 lethal = 5.1
# c1ccc(C2N3CCCN23)cc1 (stereo unspecified) reads ugtP null kill = 7.1; PrP 5UTR inh = -22.8; Autofluor counter = 3355; Mtb hypoxia inh = /; Mtb hypoxia inh growth = /; BJeLR lethal = -7.9; Sa RN4220 lethal = 1.7
